VDR inh: blocks the human vitamin D receptor | P11473 | VDR-SRC2-3 peptide fluorescence polarization, 2 h | Potency, µM, for the others: max response, negative = inhibition, usual class: inhibitors | hit rate 0.93% among 400,000 | AID 504847; active means well fitted inhibition curve with a large enough effect; inconclusive means small, poorly fitted or top-dose-only effect, or another doubt; inactive means no such curve, though single readings can be large or run the other way; further: series mostly up to about 120 µM
Target sequence (P11473 whole entry, looked up): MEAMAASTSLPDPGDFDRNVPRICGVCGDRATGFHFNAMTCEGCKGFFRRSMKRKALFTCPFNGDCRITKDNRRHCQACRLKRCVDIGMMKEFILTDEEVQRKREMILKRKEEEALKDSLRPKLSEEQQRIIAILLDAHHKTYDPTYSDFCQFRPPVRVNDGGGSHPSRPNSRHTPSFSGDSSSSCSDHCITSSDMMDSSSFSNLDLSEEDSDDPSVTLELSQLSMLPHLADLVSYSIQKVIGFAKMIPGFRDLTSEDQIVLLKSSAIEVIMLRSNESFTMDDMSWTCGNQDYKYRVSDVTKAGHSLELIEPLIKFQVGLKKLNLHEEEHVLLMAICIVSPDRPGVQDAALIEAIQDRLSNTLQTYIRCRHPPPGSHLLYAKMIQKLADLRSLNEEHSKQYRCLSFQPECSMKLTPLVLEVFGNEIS
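Inhibition of the VDR/SRC2-3 peptide interaction is quantified by fluorescence polarization. Compounds (23 nl, pintool) incubate with the reagents for 2 hours at ambient room temperature.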
An asterisk follows results filed as active; ? = inconclusive. On the % scale 0 is the no-effect control and ±100 the full control effect; potency means the concentration at half of the fitted maximal effect.

molecule | VDR inh
Cc1ccc(S(=O)(=O)c2cn(Cc3ccccc3)c3cc(N4CCCC4)c(F)cc3c2=O)c(C)c1 | 10%
O=C(Nc1ccc(Br)cc1)c1cccc(S(=O)(=O)Nc2cnc3ccccc3c2)c1 | -2%
Cc1cc(C)cc(NC(=O)CCN2CCOCC2)c1 | 3%
Cc1ccc(/C=C2\C(=O)Nc3ccccc32)o1 | -22%
O=C(NC(Cc1ccccc1)C(=O)N1CCN(S(=O)(=O)c2ccccc2)CC1)c1ccccc1 (stereo unspecified) | -3%
COc1cc(NCCCn2ccc(NC(=O)OCc3ccccc3)nc2=O)cc(OC)c1OC | -11%
O=C(NCc1cccnc1)c1cc(Sc2ccc(F)cc2F)nc2ccccc12 | -16%
Cc1nc(SCc2cccc(Cl)c2)nc2c1CCCC2 | -15%
NC(=O)c1ccccc1OCC(=O)Nc1ccc2c(c1)OCCO2 | -6%
Cc1ccc(C(=O)N=c2sccn2C)o1 | 11%
O=C(Nc1ccccc1)c1cc2c(-c3ccccc3)nn(-c3ccccc3)c2s1 | -6%
COc1ccc(OC)c2sc(NC(=O)C3COc4ccccc4O3)nc12 (stereo unspecified) | -3%
COc1ccc(C(=O)CCC(=O)NCCc2ccccc2F)cc1 | 5%
CC(C)c1ccc(-c2nn(-c3ccccc3)cc2C2C(C#N)=C(N)OC3=C2C(=O)CC(C)(C)C3)cc1 (stereo unspecified) | 8%
CCC(C)(C)NC(=O)C(c1ccccn1)N(C(=O)c1csnn1)C1CCCCC1 (stereo unspecified) | 24%
CCCC(=O)NC(C)c1nc2ccccc2n1CC (stereo unspecified) | -20%
COc1ccc(C(c2nnnn2Cc2ccc(F)cc2)N2CCN(c3ccccc3)CC2)cc1 (stereo unspecified) | -5%
NC(=O)CC(NC(=O)Cc1cccc2ccccc12)c1ccc(NCCc2ccccc2F)c([N+](=O)[O-])c1 (stereo unspecified) | 2%
CCOc1ccccc1NC(=O)Nc1c(C)n(-c2ccccc2)c(=O)n1C | 10%
CCOC(=O)c1ccc(N2CC(O)=C(c3nc4ccccc4c(=O)[nH]3)C2=N)cc1 | 3%

Reprinted at random: six records from the list
molecule | VDR inh
COc1ccc(C(=O)CCC(=O)NCCc2ccccc2F)cc1 | 5%
O=C(NC(Cc1ccccc1)C(=O)N1CCN(S(=O)(=O)c2ccccc2)CC1)c1ccccc1 (stereo unspecified) | -3%
O=C(NCc1cccnc1)c1cc(Sc2ccc(F)cc2F)nc2ccccc12 | -16%
Cc1ccc(S(=O)(=O)c2cn(Cc3ccccc3)c3cc(N4CCCC4)c(F)cc3c2=O)c(C)c1 | 10%
NC(=O)c1ccccc1OCC(=O)Nc1ccc2c(c1)OCCO2 | -6%
CCOC(=O)c1ccc(N2CC(O)=C(c3nc4ccccc4c(=O)[nH]3)C2=N)cc1 | 3%

(further entries)
molecule | VDR inh
COc1ccc(N2CC(C(=O)OCC(=O)c3cccc(OC)c3)CC2=O)cc1 (stereo unspecified) | 2%
Cc1ccnc(NC(=O)CSc2cc(=O)n(C)c3ccccc23)c1 | 5%
CCOc1cc(NC(=S)NCCCN2CCOCC2)c(OCC)cc1NC(=O)CC(C)C | 8%
CC(=O)c1cn(C)c(=O)n(C)c1=O | 5%
CN(C)NC(=S)NC1CC2CCC1C2 (stereo unspecified) | -2%
CC(OC(=O)Cc1n[nH]c(=O)c2ccccc12)C(=O)Nc1ccc(F)cc1 (stereo unspecified) | 5%
CCC(=O)NC(=Nc1nc2ccccc2s1)NC(=O)CC | 12%
Cc1onc(-c2ccccc2)c1C(=O)OCC(=O)Nc1cc(S(=O)(=O)N2CCOCC2)ccc1Cl | -1%
OC(COc1ccc(OCC(O)CN2CCN(Cc3ccccc3)CC2)cc1)CN1CCN(Cc2ccccc2)CC1 (stereo unspecified) | 4%
COc1ccc(N/C=C\C(=O)c2ccc(Br)cc2)cc1OC | -6%
CCOC(=O)C1(Cc2cccc(F)c2)CCN(C(=O)COC)CC1 | -9%
Cc1ccc2nc(NC(=O)C3CCN(S(=O)(=O)c4cc([N+](=O)[O-])ccc4Cl)CC3)sc2c1 | -19%
CN(C)C(=S)NC(C)(C)C | 14%
CN(CC(=O)Nc1cc(C(F)(F)F)ccc1-n1cncn1)Cc1nc2ccccc2c(=O)[nH]1 | -15%
C#CCn1cc(Cl)cc(C(=O)Nc2ccccc2)c1=O | -25%
c1ccc(-c2nc(-c3ccccc3)c(NC3CCCCC3)o2)cc1 | ?
COc1ccc(NC(=O)NC(=O)c2cc(OCC(F)(F)F)ccc2OCC(F)(F)F)cc1 | 4%
Cc1c(C(=O)N(Cc2cccc(Br)c2)C2CCS(=O)(=O)C2)oc2ccc(F)cc12 (stereo unspecified) | -14%
Cc1cccc(NS(=O)(=O)c2ccc3[nH]c(=O)ccc3c2)c1C | 4%
Cc1cc2c(cc(C(=O)O)n2C)s1 | 10%
Cc1ccc(N(CC(=O)NCc2ccc3c(c2)OCO3)C(=O)CCC(=O)Nc2ccccn2)cc1 | -9%
COc1cccc2c1cc1c(=O)n(CC(=O)N3CCN(c4ccccc4)CC3)nc(C)n12 | 10%
Cc1ccc(OC(=O)c2ccc(Br)o2)cc1 | 6%
Cc1ccc2c(c1)cc(CN(Cc1cccnc1)C(=O)NCc1ccccc1)c1nnnn12 | 4%
O=C1CCC/C(=N\NC(=O)COc2ccc(Cl)cc2)C1 | -19%
CC(C)(C)c1cccc(Cn2nnc3ccccc32)c1O | ?
COc1cc(CCC(=O)OCC(=O)NCc2ccccc2)cc(OC)c1OC | 6%
CCOc1cc(CNc2ccc3c(c2)OCCO3)cc(Br)c1OCC(N)=O | -4%
Cc1ccc(OCCC(=O)OCC(=O)N2CCN(S(=O)(=O)c3ccc(Cl)cc3)CC2)cc1 | -9%
O=C(COC(=O)c1ccc(O)cc1)NCCCc1ccccc1 | 3%
COc1ccc(-c2c(C#N)c(N)nc3c2CCC3)cc1 | -16%
COc1ccccc1N1CCN(C(=O)c2ccc(-c3ccccc3)cc2)CC1 | 2%
Cc1ccc(NC(=O)CCCSc2nc3ccccc3[nH]2)cc1 | 0%
O=Nc1c(O)[nH]c2c(Cl)c(Cl)ccc12 | -18%
Cc1ccc(OCC(=O)Nc2nonc2-c2ccc(Br)cc2)cc1 | 1%
CC1C=CCC2C(=O)N(c3cccc(C(=O)N4CCCCCC4)c3)C(=O)C12 (stereo unspecified) | 13%
CCCCS(=O)(=O)/C=C/[C@H]1[C@H](S(=O)(=O)CCCC)[C@H]2C=C[C@@H]1C2 | -9%
CCC(CC)C(=O)Nc1c2c(nn1-c1ccc(OC)cc1)CS(=O)C2 (stereo unspecified) | -5%
COc1ccc(C)cc1NC(=O)c1cc(C2CC2)nc2c1c(C)nn2C1CCS(=O)(=O)C1 (stereo unspecified) | 14%
CN(CC(=O)Nc1ncn[nH]1)S(=O)(=O)c1ccc(Br)cc1 | 14%

The last two records of the part above come first, to join the parts.
molecule | VDR inh
COc1ccc(C)cc1NC(=O)c1cc(C2CC2)nc2c1c(C)nn2C1CCS(=O)(=O)C1 (stereo unspecified) | 14%
CN(CC(=O)Nc1ncn[nH]1)S(=O)(=O)c1ccc(Br)cc1 | 14%
COC(=O)CSc1cc(C)nc(SC)n1 | -6%
Cc1oc(-c2cccc(C(F)(F)F)c2)nc1CN1CCOCC1 | 0%
CCn1c(=O)cc(SCC(=O)NCCCN2CCN(c3ccc(F)cc3)CC2)c2ccccc21 | 12%
Cc1ccc(SC(C)C(=O)N2CCCC2)cc1 (stereo unspecified) | 16%
O=C1c2c(O)cc(O)cc2O[C@H](c2ccc(O)c(O)c2)[C@H]1O | 0%
CCC(C)(C)n1nnnc1C(c1ccc(C)cc1)N1CCN(Cc2ccc3c(c2)OCO3)CC1 (stereo unspecified) | 3%
O=[N+]([O-])c1ccc(Oc2cccnc2)c([N+](=O)[O-])c1 | ?
Cc1c(CNCc2ccc(OC(C)C)cc2)c(C(=O)O)c(C)n1Cc1ccc(Cl)cc1 | -1%
CCc1noc(C)c1C(=O)OCC(=O)N(CCOC)c1c(N)n(Cc2ccccc2)c(=O)[nH]c1=O | 5%
CCCS(=O)(=O)c1nc(S(=O)(=O)c2ccc(C)cc2)c(NCC(C)C)s1 | 17%
Cc1cc([N+](=O)[O-])ccc1NC1CCCC1 | -21%
COc1cc2c(C(=O)N3CCN(c4cccc(C(F)(F)F)c4)CC3)cn(CC(C)C)c(=O)c2cc1OC | -7%
COc1ccc(/C=C/C(=O)Nc2cc(S(=O)(=O)N3CCOCC3)ccc2C)cc1OC | -3%
CCCNC(=O)c1ccc(Cn2cc(C(F)(F)F)ccc2=O)cc1 | -7%
Cc1cc(NC(=O)COc2coc(CN3CCN(c4ccc(F)cc4)CC3)cc2=O)no1 | -19%
CCOc1ccccc1N(C)C(=O)c1cc2c(=O)n(CC)c3ccccc3c2s1 | ?
O=C(CCC(=O)Nc1ccccc1)N/N=C/c1ccc2c(c1)OCO2 | 1%
COc1ccc(/C=N/OC(=O)Nc2ccc(Cl)cc2)c(OC)c1 | 6%
COc1ccc(CN(CC(=O)NCc2ccco2)C(=O)CNS(=O)(=O)c2ccc(C)cc2)cc1 | 27%
COc1ccc2oc(-c3ccc(NC(=O)c4ccc(N5CCOCC5)c([N+](=O)[O-])c4)cc3)nc2c1 | 6%
CCc1cc2c(SCC(=O)NC3CC3)ncnc2s1 | 0%
COCCn1c(Cc2ccccc2)nnc1SC(C)C(=O)NC1CC1 (stereo unspecified) | -2%
Cc1cc(NC(=O)COC(=O)CSc2nc3cc(Cl)ccc3n2Cc2ccccc2)no1 | -2%
Cc1ccc(C(CC(=O)N2CCOCC2)c2ccco2)cc1 (stereo unspecified) | -18%
CCOc1cc(OCC)cc(C(=O)NCCCN2CCOCC2)c1 | 5%
Cc1ccc(SC2CCN(C(=O)C3CCC(=O)N(C4CC4)C3)CC2)cc1 (stereo unspecified) | 1%
COc1cc(C2NC(=O)NC(C)=C2C(=O)OCC2CCCO2)ccc1O (stereo unspecified) | -4%
Cc1ccc(CC(=S)N2CCOCC2)cc1 | -30%
O=c1c(S(=O)(=O)c2ccccc2)cn(Cc2ccccc2)c2cc(N3CCOCC3)c(F)cc12 | 2%
COc1ccc(N2CC(C(=O)Nc3nnc(SCC(=O)c4ccccc4)s3)CC2=O)cc1 (stereo unspecified) | -14%
COc1ccc(-c2nnc(SCC(=O)c3ccc(C)o3)o2)cc1 | 3%
CCOc1ccccc1C1C2=C(COC2=O)Nc2cc3c(cc21)OCO3 (stereo unspecified) | 8%
O=S(=O)(N1CCCCC1)N1CCNCC1 | -6%
O=C(Nc1cccc(F)c1)C1CCN(C(=O)Cc2ccccc2)CC1 | -18%
Cc1ccccc1-c1cc2nc(-c3ccc([N+](=O)[O-])cc3)cc(=O)n2[nH]1 | -6%
COCCNC(=O)NC(=O)COC(=O)C12CC3CC(CC(NC(C)=O)(C3)C1)C2 | 18%
O=C(CC1C(=O)N(c2ccccc2)C(=O)N1Cc1ccc2c(c1)OCO2)Nc1ccccc1 (stereo unspecified) | 8%
Cc1ccc(CNC(=O)C(=O)NCC2CCCN2S(=O)(=O)c2cccs2)cc1 (stereo unspecified) | 3%
O=c1c(-c2cccc(Cl)c2)nc2cncnc2n1Cc1ccccc1Cl | -19%
COc1ccc(Cc2nnc(NC(=O)c3ccccc3C)s2)cc1 | 6%
COc1ccc(-n2c(-c3cccc(F)c3)nc3c(cnn3-c3ccc(C)cc3)c2=O)cc1 | -11%
Cc1ccc(-c2nnn(CC(=O)N(c3ccccc3)C(C(=O)NCC3CCCO3)c3ccc(F)cc3)n2)o1 (stereo unspecified) | 3%
Cc1ccc(-n2c(SCc3cn4ccsc4n3)nc3ccccc3c2=O)cc1 | 11%
COc1ccccc1N1CCN(C(=O)/C=C/c2cccs2)CC1 | -13%
CCOC(=O)Cn1c(C)[n+](C)c2cc(Cl)c(Cl)cc21 | 2%
Cc1cc(NC(=O)Cc2ccccc2[N+](=O)[O-])no1 | 4%
COc1cc(Cn2nnc3ccccc32)cc(Br)c1O | 3%
O=C1O/C(=C\C(=O)N2CCOCC2)c2ccccc21 | -6%
C#CCCC/C(=C\C(=O)N(C)[C@H](C(=O)N(C)[C@H](C(=O)N(C)[C@H](C(=O)N(C)[C@H](C(N)=O)C(C)C)C(C)C)C(C)C)C(C)C)OC | -2%
CCN(C(=O)COC(=O)c1c(C)noc1C)C1CCS(=O)(=O)C1 (stereo unspecified) | -4%
Cc1ccc(F)c(C2C3C=CCC(c4ccccc4)C3C(=O)N2Cc2ccccc2)c1 (stereo unspecified) | -12%
NCCCNCCCCNCCCNC(=O)CCc1ccc(O)cc1 | 4%
CN(C)C(=O)CSc1n[nH]c(-c2ccco2)n1 | -5%
CC(C)=CCCC(C)CN1CCC(N2CCC(C(=O)N3CCOCC3)CC2)CC1 (stereo unspecified) | -2%
O=C(Nc1cccnc1)c1ccc(C(=O)Nc2cccnc2)cc1 | -17%
CCCCC1(Cc2ccc([N+](=O)[O-])cc2)C(=O)N(c2ccccc2)N(c2ccccc2)C1=O | -14%
CCOC(=O)Cc1ccc(NC(=O)NCc2c(-n3cccc3)sc3c2CCCC3)cc1 | 12%
C=CCNC(=O)COC(=O)c1ccc(Sc2nncn2C)c([N+](=O)[O-])c1 | ?
CCc1ccc(C(=O)Cn2ccsc2=N)cc1 | 27%
CCCC(c1nnnn1CCOC)N1CCN(C(=O)c2ccco2)CC1 (stereo unspecified) | 3%
CCC(C)NC(=O)c1cc2c(=O)n(CC)c3ccccc3c2s1 (stereo unspecified) | -28%

Assay outcomes (PubChem BioAssay)

The list is partial. The share of hits here may be higher or lower than overall.
